Calb FLC – C. albicans growth modulation with fluconazole. C. albicans CaCi-2 (fluconazole-resistant clinical isolate) + fluconazole, Alamar Blue growth, 48 h. growth inhibition, % (no concentration beside the values). 300,000 tested, 0.57% active;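 active = most replicates above 75%; inconclusive = exactly half above 75%; inactive = most below 75%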;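 note: all wells also contain fluconazole at 8 µg/ml as a sub-toxic cotreatment; 0% = median of DMSO wells and 100% = median of geldanamycin control wells; wells of about 8 µL received 7.5 nL stock; the first replicate is given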
RanGTP-Impb inh – inhibitors of RanGTP-importin-beta interaction, primary screen, biochemical, FRET, CFP-Ran, YFP-importin-beta, homogeneous. cell-free CFP-Ran/YFP-importin-beta FRET ratio. inhibition, % (test concentration not listed). 300,000 tested, 1.1% active. AID 2216;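 active = most replicates above 15%; inconclusive = exactly half above 15%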;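 note: 0% = DMSO wells and 100% = Ran loaded with GDP instead of GTP; wells of about 40 µL received 100 nL stock; the first replicate is given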
Beta2AR agonist – human beta-2 adrenergic receptor agonism by FAP; P07550; Am2.2-beta2AR cells, FAP receptor internalization, flow cytometry; reference of the scale not given here; response, % (no concentration beside the values); 340,000 tested, 0.43% active;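 active = response above a set limit, near 3 SD of response in nonfluorescent compounds, cut at about 42% in these data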;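 note: stock transfer was 100 nL into about 11 µL; a reference agonist was the positive control; negative values mostly stem from fluorescent compounds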
Target sequence (P07550 whole entry, looked up): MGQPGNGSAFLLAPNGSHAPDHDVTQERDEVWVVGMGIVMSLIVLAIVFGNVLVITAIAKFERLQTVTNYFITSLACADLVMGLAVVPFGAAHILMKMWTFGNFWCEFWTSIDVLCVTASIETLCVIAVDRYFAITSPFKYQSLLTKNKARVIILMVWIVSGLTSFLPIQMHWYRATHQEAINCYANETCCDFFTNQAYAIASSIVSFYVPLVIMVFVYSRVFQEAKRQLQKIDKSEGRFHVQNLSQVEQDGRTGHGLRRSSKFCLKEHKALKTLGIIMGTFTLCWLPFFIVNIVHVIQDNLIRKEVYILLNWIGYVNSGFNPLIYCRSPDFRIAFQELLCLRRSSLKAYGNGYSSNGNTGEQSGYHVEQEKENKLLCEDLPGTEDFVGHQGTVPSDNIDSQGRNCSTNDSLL
Beta apoptosis – blocks beta cell apoptosis. INS-1E cytokine-induced death, ATP luminescence, 48 h; percent of positive-control rescue, neutral wells zero. protection from apoptosis, % (no concentration beside the values). 300,000 tested, 0.8% active. AID 435005;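 active = all replicates at 75% or more, or half of them and the mean; inconclusive = half reach 75% but not the mean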;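 note: 0% = cytokine-treated negative control wells and 100% = positive control rescue; higher means more ATP so stronger rescue from cytokine killing; wells of about 40 µL received 100 nL stock; the first replicate is given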
Bfl-1 A1 inh – inhibitors of the anti-apoptotic protein A1, read as caspase activation; caspase activation, % (concentration not given with the values); 330,000 tested, 0.066% active; MEF A1-2A-BIM cells, Caspase-Glo 3/7 luminescence, 3 h; percent of clofoctol response, vehicle zero; AID 2462;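 active = over half of replicate activation scores above 10%, or exactly half above 10 with the replicate mean above 10; inconclusive = replicate mean below 10 yet half the replicates above 10; inactive = over half of replicates below 10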;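 note: wells of about 30 µL received 50 nL stock; many hits fall short of the cut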
UCH37 DUB inh – human UCH37 deubiquitinating enzyme inhibition; Q9Y5K5; purified proteasome/UCH37, Ub-AMC cleavage fluorescence; inhibition, % (concentration not given with the values); 330,000 tested, 0.33% active; AID 588478;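 active = mean of two replicates above 20%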;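 note: 0% = compound-free wells with enzyme and 100% = wells lacking proteasome; stock transfer was 100 nL into about 20 µL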
Target sequence (Q9Y5K5 whole entry, looked up): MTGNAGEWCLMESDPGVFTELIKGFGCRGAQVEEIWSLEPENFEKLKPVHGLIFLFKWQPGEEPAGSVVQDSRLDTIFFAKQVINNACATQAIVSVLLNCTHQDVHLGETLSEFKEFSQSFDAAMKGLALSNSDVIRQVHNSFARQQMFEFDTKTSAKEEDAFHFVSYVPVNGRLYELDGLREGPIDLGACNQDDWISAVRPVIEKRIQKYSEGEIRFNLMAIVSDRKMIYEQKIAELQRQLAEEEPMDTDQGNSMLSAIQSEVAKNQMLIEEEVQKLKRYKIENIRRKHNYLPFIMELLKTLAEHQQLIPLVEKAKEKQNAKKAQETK
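Material: Human UCH37 enzyme supplied as purified proteasome complex | Schedule: 30 min compound-proteasome preincubation then 25 min substrate reaction, room temperature | Detection: AMC fluorescence from Ub-AMC cleavage, excitation 355 nm, emission 460 nm | Benchmarks: Wells without proteasome as full block, compound-free enzyme plus substrate as uninhibited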
LANA-H2B inh – blocks KSHV LANA binding to histone H2A/H2B | Q9QR71 | cell-free LANA-H2A/H2B peptide, fluorescence polarization | inhibition, % (no concentration beside the values) | 320,000 tested, 0.6% active | AID 2629; in the data active = inhibition mostly above about 10%, no sharp cut-off; inactive = mostly below about 6.7%;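 note: stock transfer was 7.5 nL into about 10 µL; 0% = median of vehicle wells and 100% = median of positive control wells; one replicate is shown; the record names a cut of 25% in any replicate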
T cruzi inh – blocks replication of Trypanosoma cruzi; T. cruzi beta-gal in NIH3T3, luminescence, 90 h; 300,000 tested, 1.4% active; AID 1885; inhibition, % (test concentration not listed);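 active = mean inhibition across valid replicates above about 55%, limit read from the data; inconclusive = mean below that limit but half or more replicates reach it; inactive = mean below it, under half of replicates reach it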;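 note: signal also drops with host cell toxicity which is not excluded here; 0% = plate median of DMSO wells and 100% = zero luminescence signal; higher percent means less beta-gal luminescence so fewer parasites; stock transfer was 50 nL into about 50 µL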
Numbers without * were called inactive; u = inconclusive; x = no result given. Rows are unselected; about 4.3% have a hit in one of these screens.

SMILES	Calb FLC	Bfl-1 A1 inh	Beta apoptosis	UCH37 DUB inh	LANA-H2B inh	T cruzi inh	Beta2AR agonist	RanGTP-Impb inh
CCOc1ccc(Cn2nnc(C(=O)NCCc3ccc(Cl)cc3)c2N)cc1	-8.6	-0.4	-8.8	3.6	-5.3	8.8	0.6	-2.1
CCOC(=O)c1cc(NC(=O)CCC(=O)O)ccc1N1CCCCC1	-6.3	-0.3	-1.8	2.3	-1.0	3.1	8.2	2.8
Cn1c(-c2ccccc2)cnc1NCc1ccc(F)cc1	-13.0	x	x	4.0	x	6.8	-6.4	-3.3
COCCN=c1scc(-c2cc(OC)c(OC)c(OC)c2)n1/N=C/c1c(C)[nH]c2ccccc12	22.2	0.4	3.9	x	-3.7	52.1	22.8	-26.9
CC(=O)c1cc(C(=O)NC2CCCc3c2cnn3-c2cc(C)cc(C)c2)[nH]n1 (stereo not given)	-0.6	0.1	-2.8	1.9	4.2	19.0	1.2	3.4
C=CCN1CCN(C(c2ccc(OC)c(OC)c2)c2nnnn2C(C)(C)C)CC1 (stereo not given)	-3.4	x	x	2.7	x	-10.5	-2.5	-1.9
O=C(C1=C(O)C(=O)N(CCOCCO)C1c1ccccn1)c1cccs1 (stereo not given)	-2.6	-0.4	-3.0	11.3	4.7	8.7	0.8	-1.0
Oc1c(C(c2ccccn2)N2CCOCC2)ccc2cccnc12 (stereo not given)	85.8*	-0.2	x	4.2	-1.8	10.2	12.0	-3.6
CC(C)(C)C1CCc2c(sc(NC(=O)CSc3ncn[nH]3)c2C#N)C1 (stereo not given)	-4.5	0.0	16.2	8.2	1.4	22.5	-9.8	u
Cc1cnc(C(=O)Nc2nccs2)cn1	-8.2	-7.2	-3.9	1.9	-1.8	-13.7	-5.4	u
NC(=O)c1cccc(C(N)=O)n1	2.1	-0.1	-2.8	0.7	-12.7	-1.6	0.1	6.9
COc1ccc(NC(=O)c2cccs2)cc1O	-0.2	-2.2	3.8	-0.2	-1.9	-4.1	-10.5	2.5
CCCCCOc1ccc(C2C(C(=O)c3ccc(C)o3)=C(O)C(=O)N2c2cc(C)on2)cc1 (stereo not given)	19.2	-1.7	-1.7	x	-0.5	-0.7	4.0	3.3
c1cc(-c2sc(-c3ccncc3)c(-c3ccncc3)c2-c2ccncc2)ccn1	-0.4	-0.4	6.5	-11.7	4.3	18.3	13.8	3.0
CCCNC(=O)C(=O)NCCC1=CCCCC1	1.6	-0.7	-5.0	1.9	0.4	0.6	2.0	-0.9
O=C(COC(=O)C12CC3CC(CC(Br)(C3)C1)C2)Nc1cccc(S(=O)(=O)N2CCOCC2)c1	x	-0.7	-1.5	0.9	-8.9	x	-5.7	x
CC(C(N)=O)N1C(=O)C2C3C=CC(C3)C2C1=O (stereo not given)	2.8	1.0	-4.0	5.7	0.6	-11.9	-4.0	4.5
Cc1ccc(N2C(=O)CSC23C(=O)Nc2ccccc23)cc1 (stereo not given)	7.7	1.0	-3.4	4.0	4.9	-4.4	-4.7	-1.6
Cc1cc(S(=O)(=O)NCCN2CCOCC2)ccc1Cl	-4.6	-0.2	-5.9	0.4	2.0	-9.1	3.7	-1.5
CCOC(=O)c1sc2nc(C)cc(C)c2c1NC(=O)c1ccco1	-2.0	0.0	-3.2	1.7	-8.8	9.3	-0.6	0.1
CC(C)CNS(=O)(=O)c1ccc(CCC(=O)NCc2ccc(Cl)cc2)cc1	-6.6	0.1	x	0.0	-0.1	u	-7.8	3.3
CC(NC(=O)COC(=O)CN1C(=O)C2CCCCC2C1=O)c1ccccc1 (stereo not given)	x	-0.3	-6.3	3.9	-3.4	x	-4.9	x
CCOC(=O)N1CCN(Cc2nc3c(c(=O)n(C)c(=O)n3C)n2CCC(C)C)CC1	2.5	-0.9	3.6	1.3	1.6	10.4	-8.3	4.2
CC(NC(=O)Cc1ccc(Br)cc1)c1ccccc1 (stereo not given)	-50.1	0.1	-3.2	1.3	3.8	-3.5	-8.7	1.8
O=C(Nc1cccnc1)c1cc2c(s1)-c1ccccc1OC2	3.3	-0.7	-0.4	-440.4	-2.8	-4.6	39.0	13.7
CCCCC(=O)Nc1cc([N+](=O)[O-])ccc1F	-18.2	-0.6	-2.2	3.1	-1.7	0.5	-3.5	-0.8
CC(=O)NC(Cc1ccc(F)c(F)c1)C(=O)NC1CCN(c2c(Cc3ccccc3)c(C)nc3ncnn23)CC1 (stereo not given)	-8.4	0.1	1.5	2.3	12.4	3.1	10.4	1.2
COc1ccc(OCCCC(=O)N2CCN(S(=O)(=O)c3cccc(F)c3)CC2)cc1	-6.2	-0.5	1.4	2.3	3.0	-6.4	4.8	1.4
O=C(CCS(=O)(=O)c1ccc(Br)s1)NCc1ccccc1	-13.9	0.7	0.8	1.0	0.2	-3.8	-5.1	4.0
NC(=O)c1ccc(OCC(F)(F)F)nc1	-7.4	0.1	-6.9	1.4	1.6	-4.0	1.3	7.2
O=C(COc1ccc(Cl)cc1)Nc1ncc([N+](=O)[O-])s1	97.6*	x	x	5.2	x	-4.0	19.1	u
Cc1cc(C(F)F)n2nc(C(=O)Nc3sc4c(c3C(N)=O)CCC4)nc2n1	-2.5	-0.8	12.5	x	x	1.8	-21.8	-2.2
Cc1ccc(C)c(NC(=S)NCCN2CCOCC2)c1	7.5	0.9	-0.2	1.7	-1.9	-16.6	-4.9	1.9
C=CCn1c(SCC(=O)NCc2ccccc2)nnc1-c1ccccc1O	39.2	0.7	0.1	5.2	-0.9	0.0	-1.9	-3.9
COc1ccccc1CN1C[C@@H]2C[C@@H](c3ccccc3C)N3CCC[C@@]23C1=O	10.6	0.1	-4.1	4.0	0.9	12.4	-3.8	-7.9
O=c1cc(NCCO)c2ccccc2o1	-2.8	0.4	-9.9	4.7	-1.5	-2.2	-1.1	5.2
CC(=O)NC1=NC(=O)/C(=C/c2cn(C(C)=O)nc2-c2ccccc2)S1	18.0	-0.6	3.2	x	2.3	13.4	-7.9	x
COc1ccccc1CNS(=O)(=O)c1cc2c3c(c1)C(C)C(=O)N3CCC2 (stereo not given)	12.4	1.0	2.0	2.1	0.4	-11.7	-6.8	2.1
CCN(CC)S(=O)(=O)c1ccc(-c2nnc(SCC(=O)Nc3ccc(OC)cc3)o2)cc1	-1.5	u	-7.9	3.0	4.0	-6.3	-5.9	-4.6
CC(NC(=O)c1cc(S(=O)(=O)N2CCCC2)cn1C)c1ccccc1 (stereo not given)	-6.4	1.3	-5.1	2.6	-2.0	-7.0	6.9	3.9
O=C(CSCCSCC(=O)c1ccco1)c1ccco1	-9.9	x	x	1.6	x	-4.8	x	1.7
Cc1cc(NNC(=O)c2cccc(C(F)(F)F)c2)nc2c1c(C)nn2C	14.2	-0.8	43.7	3.7	-0.6	-30.6	-0.1	2.9
Cc1ccc(NC(=O)C2(c3ccc([N+](=O)[O-])cc3)CCCC2)cc1	-3.9	0.2	1.8	1.2	-0.5	4.0	5.6	2.7
CCCC(=O)Nc1ccccc1NC(=O)c1ccc(OCC)cc1	-9.5	0.2	-1.4	5.3	0.2	-18.9	-2.5	-1.4
COC(=O)CSc1nc(Cc2ccccc2)nc2ccccc12	-3.4	0.4	-6.9	1.1	-0.6	-15.8	-5.8	1.8
Oc1ccccc1C(=S)N1CCCCC1	-4.0	0.3	-5.2	-5.1	3.5	-9.8	-4.1	u
Cc1nc(NC(=O)CSc2nnc(-c3ccc4c(c3)OCO4)o2)c(Cl)cc1Cl	-16.0	0.3	5.9	0.8	3.7	13.2	-12.4	-2.5
O=C(CCCC(=O)OCC(F)(F)C(F)F)Nc1ccccc1F	22.2	0.2	-6.1	-1.6	0.1	-2.7	-1.9	1.1
COc1ccccc1CNC(=O)COC(=O)Cc1c(F)cccc1Cl	-10.3	0.2	-6.0	3.9	-5.2	-0.4	-1.8	1.9
C=CCn1c(SCC(=O)NCC2CCCO2)nc2scc(-c3ccco3)c2c1=O (stereo not given)	23.8	-0.5	-6.8	-0.4	6.3	-6.3	5.5	-0.3
CN1c2ccccc2N(C)C1c1ccc2c(c1)OCO2	-11.7	-0.3	5.1	2.1	3.1	-4.4	1.0	0.5
CCC(=O)N1CCN(c2ccc(NC(=O)c3ccc4c(c3)OCCO4)cc2)CC1	-1.3	1.8	1.5	-4.8	2.7	4.8	0.1	1.2
COC(=O)c1ccc(NC(=O)CS(=O)(=O)Cc2ccccc2)cc1	-2.4	0.5	1.6	6.8	-4.9	-4.4	11.6	-4.3
O=C(c1ccc2ccccc2c1)C1CCCN(C(=O)CCn2cnnn2)C1 (stereo not given)	3.4	-0.6	-3.5	-1.3	-6.7	0.5	-4.6	-1.3
COc1cc([N+](=O)[O-])c(C(=O)N2CCOCC2)c([N+](=O)[O-])c1	-5.7	0.1	-7.9	4.8	0.1	-9.5	-4.8	-2.2
O=c1c2ccccc2nc(-c2ccccc2)n1CCCN1CCOCC1	8.7	0.3	-1.8	1.5	0.3	-8.2	-15.3	1.8

(cont.)
SMILES	Calb FLC	Bfl-1 A1 inh	Beta apoptosis	UCH37 DUB inh	LANA-H2B inh	T cruzi inh	Beta2AR agonist	RanGTP-Impb inh
CCCCc1ccc(NC(=O)Nc2c(C)n(C)n(-c3ccccc3)c2=O)cc1	-2.3	u	4.1	0.9	8.1	7.0	-2.4	-1.4
Cc1ccc(Nc2nc(COC(=O)C3CC3)cs2)cc1	u	-0.3	-8.0	1.6	-3.5	-2.6	11.1	2.4
Cn1c(=O)[nH]c2ncn(C)c2c1=O	3.9	0.1	x	1.9	-1.8	-11.3	10.6	-0.8
CCC(C)(C)n1nnnc1C(c1ccc(OC)c(OC)c1)N1CCN(C(=O)c2ccco2)CC1 (stereo not given)	-1.0	-0.8	-5.1	2.3	-6.7	-3.3	10.6	-3.1
CC(C)(C)c1csc(NC(=O)c2ccc3nccnc3c2)n1	13.2	0.9	5.7	-0.1	-1.2	1.3	0.2	-0.3
CC(CCc1ccccc1)NC(=O)c1ccc(NC(=O)c2ccc(Cl)cc2Cl)cc1 (stereo not given)	4.6	0.0	-0.5	6.2	-1.4	-7.0	7.1	1.2
O=[N+]([O-])c1ccccc1-c1nc(-c2ccc(Br)o2)no1	-2.9	-2.2	-5.1	2.9	-5.4	-3.9	-13.9	-3.3
COc1cccc(/C(C)=N/NC(=O)c2ccc(N(C)C)cc2)c1	u	-6.3	1.0	x	-3.3	-0.4	0.4	-1.4
COc1ccccc1Oc1nc2c(c(=O)n(Cc3ccccc3F)c(=O)n2C)n1C	0.9	1.5	0.9	4.8	-0.8	-2.6	3.7	-4.7
O=C(c1ccccc1)N(Cc1ccc2c(c1)OCO2)Cc1nc2ccccc2c(=O)[nH]1	1.4	0.0	-1.4	-1.1	0.6	2.0	0.1	-2.2

Screening data (PubChem BioAssay)
